Screening data as filed in PubChem.
LANA-H2B inh – blockers of LANA interaction with H2A/H2B – biochemical, FP readout, HTS, primary screen; 0.6% of 320,000 active; Protein LANA1 (Human herpesvirus 8 type P (isolate GK18)), Q9QR71; inhibition, % (test concentration not listed); cell-free LANA-H2A/H2B peptide, fluorescence polarization; AID 2629, 2010; in the data active = inhibition mostly above about 10%, no sharp cut-off; inactive = mostly below about 6.7%;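 also: stock transfer was 7.5 nL into about 10 µL; 0% = median of vehicle wells and 100% = median of positive control wells; one replicate is shown; the record names a cut of 25% in any replicate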
A1 inh – caspase 3/7 activation in MEF A1-2A-BIM cells, primary screen, A1 inhibitor project, cell-based, luminescence, HTS | Caspase-Glo 3/7 luminescence, 3 h; percent of clofoctol response, vehicle zero | caspase activation, % (test concentration not listed) | 0.066% of 330,000 active;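 active = over half of replicate activation scores above 10%, or exactly half above 10 with the replicate mean above 10; inconclusive = replicate mean below 10 yet half the replicates above 10; inactive = over half of replicates below 10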;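 also: wells of about 30 µL received 50 nL stock; many hits fall short of the cut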
Beta cell apopt – inhibitors of cytokine-induced beta cell apoptosis, primary screen, luminescence | 0.8% of 300,000 active | INS-1E cytokine-induced death, ATP luminescence, 48 h; percent of positive-control rescue, neutral wells zero | protection from apoptosis, % (no concentration beside the values);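 active = all replicates at 75% or more, or half of them and the mean; inconclusive = half reach 75% but not the mean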;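 also: 0% = cytokine-treated negative control wells and 100% = positive control rescue; higher means more ATP so stronger rescue from cytokine killing; wells of about 40 µL received 100 nL stock; the first replicate is given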
T cruzi repl – inhibitors of intracellular T. cruzi growth, primary screen, luminescence, NIH3T3 host cells. T. cruzi beta-gal in NIH3T3, 90 h. inhibition, % (test concentration not listed). 1.4% of 300,000 active;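 active = mean inhibition across valid replicates above about 55%, limit read from the data; inconclusive = mean below that limit but half or more replicates reach it; inactive = mean below it, under half of replicates reach it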;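 also: signal also drops with host cell toxicity which is not excluded here; 0% = plate median of DMSO wells and 100% = zero luminescence signal; higher percent means less beta-gal luminescence so fewer parasites; stock transfer was 50 nL into about 50 µL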
RanGTP-Impb inh – inhibitors of RanGTP-importin-beta interaction, primary screen, biochemical, FRET, CFP-Ran, YFP-importin-beta, homogeneous. Ran GTPase (GTP-bound) - importin-beta complex. cell-free CFP-Ran/YFP-importin-beta FRET ratio. inhibition, % (concentration not given with the values). 1.1% of 300,000 active;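 active = most replicates above 15%; inconclusive = exactly half above 15%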;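 also: 0% = DMSO wells and 100% = Ran loaded with GDP instead of GTP; wells of about 40 µL received 100 nL stock; the first replicate is given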
Calb FLC – C. albicans growth inhibition with fluconazole, primary screen, CaCi-2 strain, Alamar Blue fluorescence. growth inhibition, % (concentration not given with the values). 0.57% of 300,000 active. C. albicans CaCi-2 (fluconazole-resistant clinical isolate) + fluconazole, 48 h;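 active = most replicates above 75%; inconclusive = exactly half above 75%; inactive = most below 75%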;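 also: all wells also contain fluconazole at 8 µg/ml as a sub-toxic cotreatment; 0% = median of DMSO wells and 100% = median of geldanamycin control wells; wells of about 8 µL received 7.5 nL stock; the first replicate is given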
AF4-AF9 inh – inhibitors of AF4 peptide binding to AF9, primary screen, biochemical, AlphaScreen, biotin-AF4 peptide, FLAG-AF9, single point; Protein AF-9 (Homo sapiens), P42568; inhibition, % at 10 µM; 0.47% of 350,000 active;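 active = every replicate reaching a set inhibition limit, whatever the replicate mean, cut at about 25% in these data; inconclusive = mean inhibition reaches that limit but some replicates miss it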;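 also: 0% = plate neutral control median and 100% = total signal loss; the record names both 10 and 1 µM as test concentration; the first replicate is given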
Target sequence (P42568 whole entry, looked up): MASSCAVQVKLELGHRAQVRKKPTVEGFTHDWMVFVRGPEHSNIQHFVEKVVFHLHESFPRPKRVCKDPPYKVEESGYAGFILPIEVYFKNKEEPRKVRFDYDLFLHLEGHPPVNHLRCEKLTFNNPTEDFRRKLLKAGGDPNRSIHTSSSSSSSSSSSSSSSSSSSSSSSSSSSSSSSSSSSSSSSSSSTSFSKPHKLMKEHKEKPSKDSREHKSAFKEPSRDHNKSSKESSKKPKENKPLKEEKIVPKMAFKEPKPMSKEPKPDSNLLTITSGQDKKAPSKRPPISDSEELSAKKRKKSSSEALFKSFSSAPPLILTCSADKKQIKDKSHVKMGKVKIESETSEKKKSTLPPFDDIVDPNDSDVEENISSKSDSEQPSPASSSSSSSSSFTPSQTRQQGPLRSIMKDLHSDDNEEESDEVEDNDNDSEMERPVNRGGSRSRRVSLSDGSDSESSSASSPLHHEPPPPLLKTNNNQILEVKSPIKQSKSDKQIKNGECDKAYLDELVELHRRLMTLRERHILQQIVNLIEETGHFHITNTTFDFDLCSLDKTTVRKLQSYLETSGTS
Vif TR-FRET – inhibitors of Vif binding to APOBEC3G peptide, primary screen, biochemical, TR-FRET, GST-Vif 1-94, biotin-A3G peptide, dose response retest (AID 1117319) | TR-FRET GST-Vif / biotin-A3G peptide binding; higher % means a stronger effect; test concentration not given here; strong numbers were not always called active | Virion infectivity factor (Human immunodeficiency virus type 1 group M subtype B (isolate … | inhibition, %, or IC50 in µM where a hit was titrated | 0.57% of 260,000 active;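 active = above the screen mean plus three standard deviations and confirmed in dose response; inconclusive = results disagree or hit not tested in dose response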;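 also: Vif residues 1-94 fused to GST binding biotinylated APOBEC3G peptide 110-148; 0% = full assay without inhibitor and 100% = GST in place of GST-Vif; retest series ran down from 100 µM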
Starred values were filed as active, the others as inactive; ? = inconclusive; nt = not tested or not shown; & = joins results of further samples; ! = not active in a repeat. An unsorted share of the library; 4.3% or so of the library scored in one or more.

SMILES	LANA-H2B inh	A1 inh	Beta cell apopt	T cruzi repl	RanGTP-Impb inh	Calb FLC	AF4-AF9 inh	Vif TR-FRET
CN(C(=O)CN1CCN(c2ccccc2F)CC1)C1CCCc2ccccc21 (stereo not drawn)	-1.8	0.5	0	16	-3.4	0	4.4	nt
CC(C)NS(=O)(=O)c1ccc(OCC(=O)NCc2cccnc2)cc1	0.7	-0.5	18	-9	1.5	-24	-41	-2%
CC(C)Cn1c(N)c(C(=O)COC(=O)c2nccnc2N)c(=O)n(C)c1=O	0.8	0.1	4	nt	nt	nt	-18	nt
CC(C)CCNC(=O)c1csc2c1CCCCC2	-2.9	0.6	-3	-11	nt	nt	-1.6	nt
CNC(=O)COc1ccc(Nc2nnc(C)c3ccccc23)cc1	2.1	1.5	-12	7	1.7	5	-2.6	3%
CC(=O)N1CCN(CCN2C(C)=CC(=C(C#N)C#N)C=C2C)CC1	-0.3	0.3	0	-9	-1.3	30	1.0	-1%
CC1CCCN(C(=S)SCC(=O)O)C1 (stereo not drawn)	-1.0	-0.1	-7	-32	4.1	?	nt	-4%
CNC(=O)Nc1ccc(Cn2cc(C(F)(F)F)ccc2=O)cc1	-5.8	3.5	0	-12	3.4	8	-0.3	nt
CC(OC(=O)c1cc(S(=O)(=O)N(C)C)ccc1N1CCCC1)C(=O)NCc1ccccc1 (stereo not drawn)	4.0	-0.7	-2	12	3.1	-12	-1.3	nt
CCOC(=O)c1cc(-c2ccccc2)sc1NC(=S)Nc1cc(C)ccn1	5.0	-1.3	3	36	-0.3	5	nt	0%
CCOc1ccccc1NS(=O)(=O)c1c(C)[nH]c(C)c1C(=O)N1CCCCC1	-1.7	0.0	3	3	-0.9	-21	-0.2	nt
CCCCCC(=O)NNC(=S)NC(C)=O	-0.2	0.2	-3	-8	-4.9	10	-0.8	-8%
O=C(COC(=O)c1ccc(S(=O)(=O)N2CCCC2)cc1)NCc1cccs1	-0.2	0.9	nt	6	1.1	15	2.1	nt
O=C(O)CC(Cc1ccc(Br)cc1)C(=O)O (stereo not drawn)	1.3	-0.2	-5	-11	-2.2	-8	nt	4%
CSc1cccc(NC(=O)CSc2ncccc2C(=O)Oc2cccc([N+](=O)[O-])c2)c1	0.5	-0.8	-2	-5	0.6	-1	5.4	2%
CN(C)c1cc(NC(=O)CNC(C)(C)CC(C)(C)C)c2ccccc2n1	-7.8	0.8	12	25	-1.9	-25	-5.4	1%
CCOc1c(C)cc(S(=O)(=O)NCc2ccccn2)c(C)c1C	-2.4	0.7	-2	-14	3.9	-1	-3.2	nt
CC(=O)Nc1ccc(S(=O)(=O)Nc2cccc(NC(=O)c3ccco3)c2)cc1	1.0	-0.3	-16	-14	-6.1	14	-2.5	nt
Cc1cccc(NC(=O)CN(C)S(=O)(=O)c2cccc3nsnc23)c1C	0.4	-0.2	-3	6	0.2	24	nt	26%
CCOc1ccc(Oc2ccc(S(=O)(=O)N3CCOCC3)cc2NC(=O)C2=COCCO2)cc1	-1.4	-1.1	-6	24	-0.5	4	-16	4%
CC(=O)c1ccc(OCc2cc(C(=O)NC(C)Cc3ccccn3)no2)cc1 (stereo not drawn)	4.4	0.0	-3	-3	3.0	2	1.1	nt
Cc1c(C(=O)N2CCOCC2)sc2ncnc(N3CCc4ccccc4C3)c12	-1.5	1.4	-3	-2	5.7	1	nt	?
Cc1ccccc1NC(=O)CN1CCC(C(=O)c2ccc3c(c2)OCCO3)CC1	0.9	0.6	-5	2	-3.2	-3	0.5	nt
O=C(NCCCn1ccnc1)c1cc(-c2ccc3c(c2)OCO3)on1	-2.0	0.7	-3	-24	3.4	1	1.7	5%
S=C(NCc1ccco1)N1CCN(C(c2ccccc2)c2ccccc2)CC1	-1.8	0.3	3	11	-2.7	0	1.8	1%
O=C1NNC(c2ccccc2)=N/C1=C\c1ccco1	-7.3	0.7	2	3	0.1	-13	4.6	?
COc1cn(-c2ccccc2)nc1C(=O)Nc1ccccc1	5.2	-4.9	-6	18	-0.9	5	0.5	9%
Cc1cccc(N2CCN(C(=O)c3ccc4c(c3)OCCO4)CC2C)c1 (stereo not drawn)	-2.7	-1.8	-5	4	0.3	11	-1.1	19%
CCN1CCN(C(=O)c2cc(-c3cccnc3)nc3ccc(Br)cc23)CC1	-5.0	0.4	-5	-5	5.2	25	nt	?
Nc1nc(-c2ccc(Cl)cc2Cl)cn1N	4.9	-2.1	-4	-12	4.3	5	nt	13%
Cc1cccc(C2CC(c3ccc(F)cc3)Nc3nc(N)nn32)c1 (stereo not drawn)	-3.1	0.4	0	3	-3.5	8	-0.3	7%
COc1cccc(/C=N/NC(=O)c2c(-c3ccccc3)noc2C)c1O	-6.0	0.6	87*	-7	5.7	-3	nt	-3%
CCc1c(C)nc(SCC(=O)N2CCc3ccccc32)[nH]c1=O	nt	nt	nt	11	1.4	11	-4.5	?
CCN(CC)CCOc1ccc(/C(=C(/Cl)c2ccccc2)c2ccccc2)cc1	-4.9&-1.7	0.1&-0.2	33&6	40&36	1.5&-0.2	nt	31*!	7%
COc1ccccc1Oc1ccc(S(=O)(=O)Nc2cccnc2)cc1	2.2	-1.7	22	-27	0.3	-8	nt	-2%
CN1CCN(S(=O)(=O)c2ccc(Cl)cc2)CC1	-4.0	-0.7	nt	-3	5.5	-1	-1.4&4.0	-7%&-4%
COCCNC(=O)CCCCCN1C(=O)CCC1=O	-3.9	1.4	-7	-13	2.3	-6	nt	3%
OCC[C@H]1C[C@@H](O)[C@H](O)[C@]2(OCCCc3ccccc32)O1	6.0	-0.2	-3	nt	nt	nt	-0.4	nt
Cc1ccc2cc(CCNC(=O)c3cccs3)c(=O)[nH]c2c1C	-0.9	-1.2	nt	3	?	3	-1.5	?
COc1ccc(C(=O)CN2C(=O)NC3(CCCc4ccccc43)C2=O)c(OC)c1 (stereo not drawn)	-3.7	0.2	0	3	2.8	3	-1.5	nt
Cc1cc(C(=O)N/N=C/c2c(C)n(C)c3ccccc23)n[nH]1	1.2	-0.3	2	-16	0.9	-10	2.4	-5%
CCN(CC)CCNc1ncnc2c1sc1nc(N3CCOCC3)c3c(c12)CC(C)(C)SC3	-1.7	0.4	103*	40	-3.6	12	nt	6%
O=C(Nc1ccc(Cl)cc1)Nc1nnc(/C=C/c2ccccc2)s1	1.3	2.0	18	28	2.6	-4	-4.6	nt
Cc1cccc(Nc2c([N+](=O)[O-])cc(C(=O)N3CC(=O)Nc4ccccc43)cc2[N+](=O)[O-])c1	1.7	0.7	4	84*	-0.5	26	20	2%
CCOc1ccc(C(=O)OCC(=O)c2c(N)n(C)c(=O)n(C)c2=O)cc1OCC	-4.3	-0.2	0	-9	1.1	25	nt	-3%
Cc1onc(-c2ccccc2)c1C(=O)Nc1ccc(S(=O)(=O)N2CCOCC2)cc1	-0.1	0.4	-5	11	5.0	2	2.9	nt
COc1ccccc1C(=O)NCC(=O)OC(C)C(=O)NC1CCCCC1C (stereo not drawn)	0.2	0.7	-2	nt	nt	nt	-3.5	-4%
COc1ccc(C2CC(=O)c3cnc(NC(=O)c4ccccc4OC)nc3C2)c(OC)c1 (stereo not drawn)	-7.7	0.9	-1	3	0.5	1	nt	-1%&-1%
N#CCCn1c(C2CCCCC2)nc2ccccc21	0.8	-0.3	-2	-2	1.4	2	nt	-1%
COC(=O)c1cc(C(=O)Nc2ccc(S(N)(=O)=O)cc2)cc([N+](=O)[O-])c1	2.6	-0.2	-3	11	-0.8	-11	4.1	?

Some of these compounds in order of number of heavy atoms, low to high.
SMILES	LANA-H2B inh	A1 inh	Beta cell apopt	T cruzi repl	RanGTP-Impb inh	Calb FLC	AF4-AF9 inh	Vif TR-FRET
N#CCCn1c(C2CCCCC2)nc2ccccc21	0.8	-0.3	-2	-2	1.4	2	nt	-1%
Cc1cc(C(=O)N/N=C/c2c(C)n(C)c3ccccc23)n[nH]1	1.2	-0.3	2	-16	0.9	-10	2.4	-5%
Cc1ccc2cc(CCNC(=O)c3cccs3)c(=O)[nH]c2c1C	-0.9	-1.2	nt	3	?	3	-1.5	?
O=C(Nc1ccc(Cl)cc1)Nc1nnc(/C=C/c2ccccc2)s1	1.3	2.0	18	28	2.6	-4	-4.6	nt
COC(=O)c1cc(C(=O)Nc2ccc(S(N)(=O)=O)cc2)cc([N+](=O)[O-])c1	2.6	-0.2	-3	11	-0.8	-11	4.1	?
COc1ccccc1C(=O)NCC(=O)OC(C)C(=O)NC1CCCCC1C (stereo not drawn)	0.2	0.7	-2	nt	nt	nt	-3.5	-4%
Cc1onc(-c2ccccc2)c1C(=O)Nc1ccc(S(=O)(=O)N2CCOCC2)cc1	-0.1	0.4	-5	11	5.0	2	2.9	nt
COc1ccc(C2CC(=O)c3cnc(NC(=O)c4ccccc4OC)nc3C2)c(OC)c1 (stereo not drawn)	-7.7	0.9	-1	3	0.5	1	nt	-1%&-1%
CCN(CC)CCNc1ncnc2c1sc1nc(N3CCOCC3)c3c(c12)CC(C)(C)SC3	-1.7	0.4	103*	40	-3.6	12	nt	6%

(list continues)
SMILES	LANA-H2B inh	A1 inh	Beta cell apopt	T cruzi repl	RanGTP-Impb inh	Calb FLC	AF4-AF9 inh	Vif TR-FRET
COc1ccc(/C=C(\NC(=O)c2ccc(OC)c(OC)c2)C(=O)N2CCN(C)CC2)cc1	-1.8	-0.1	-7	0	2.0	0	-8.8	-3%
COc1cc(NC(=O)c2cccs2)c(C(=O)OCC(=O)NC(C)c2ccccc2)cc1OC (stereo not drawn)	1.5	0.8	-1	2	2.7	-17	nt	-6%
Nc1nc(-c2nc3ccccc3[nH]2)cs1	-1.3	-13	0	-12	?	38	nt	-5%
O=C(Nc1ccccc1N1CCOCC1)c1cccnc1	4.0	-1.5	-5	-21	4.2	17	0.6	0%
CC(=O)c1ccc(/C=C/c2nc3ccccc3n2C)o1	-0.1	-5.2	-2	0	-54	16	-2.3	13%
Cn1c(N)c(C(=O)COc2ccc(C#N)cc2)c(=O)n(C)c1=O	6.6	-0.6	8	-14	-2.1	-22	-0.9	nt
